T cruzi inh: inhibitors of intracellular T. cruzi growth, primary screen, luminescence, NIH3T3 host cells; T. cruzi beta-gal in NIH3T3, 90 h; inhibition, % (no concentration beside the values); 300,000 compounds, 1.4% hits; AID 1885, 2009;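 active means mean inhibition across valid replicates above about 55%, limit read from the data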;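 further: signal also drops with host cell toxicity which is not excluded here; 0% = plate median of DMSO wells and 100% = zero luminescence signal; higher percent means less beta-gal luminescence so fewer parasites; stock transfer was 50 nL into about 50 µL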
ALR inh: inhibitors of human ALR sulfhydryl oxidase, primary screen, biochemical, H2O2 detection, HRP-luminol luminescence, single point | FAD-linked sulfhydryl oxidase ALR (Homo sapiens), P55789 | purified ALR, DTT oxidation | inhibition, % (no concentration beside the values) | 290,000 compounds, 3.8% hits | AID 485317, 2010;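 active means mean and each replicate at 75% or more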;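 further: stock transfer was 7.5 nL into about 7.5 µL; 0% = neutral wells and 100% = wells with inactivated enzyme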
rRNA inh HTS: reduced GFP signal of wild-type E. coli, primary screen, bacterial rRNA inhibitor project, GFP/RFP fluorescence, OD600, single point; GFP signal change (wild-type ribosome), % (concentration not given with the values); 350,000 compounds, 1.6% hits; E. coli WT GFP vs humanized-ribosome RFP mutants, 24 h; hits give low values; DMSO median 0, no signal -100;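 active means significant combined selectivity score with lowered wild-type GFP, culture density cut under 30%, mutant RFP and density less affected; inactive means any of these conditions unmet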; further: one replicate is shown; some compounds called inactive have numbers as strong as hits
LANA-H2B inh: blockers of LANA interaction with H2A/H2B – biochemical, FP readout, HTS, primary screen. Protein LANA1 (Human herpesvirus 8 type P (isolate GK18)), Q9QR71. cell-free LANA-H2A/H2B peptide, fluorescence polarization. inhibition, % (concentration not given with the values). 320,000 compounds, 0.6% hits; in the data active means inhibition mostly above about 10%, no sharp cut-off; inactive means mostly below about 6.7%;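 further: stock transfer was 7.5 nL into about 10 µL; 0% = median of vehicle wells and 100% = median of positive control wells; one replicate is shown; the record names a cut of 25% in any replicate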
Target sequence (Q9QR71 whole entry, looked up): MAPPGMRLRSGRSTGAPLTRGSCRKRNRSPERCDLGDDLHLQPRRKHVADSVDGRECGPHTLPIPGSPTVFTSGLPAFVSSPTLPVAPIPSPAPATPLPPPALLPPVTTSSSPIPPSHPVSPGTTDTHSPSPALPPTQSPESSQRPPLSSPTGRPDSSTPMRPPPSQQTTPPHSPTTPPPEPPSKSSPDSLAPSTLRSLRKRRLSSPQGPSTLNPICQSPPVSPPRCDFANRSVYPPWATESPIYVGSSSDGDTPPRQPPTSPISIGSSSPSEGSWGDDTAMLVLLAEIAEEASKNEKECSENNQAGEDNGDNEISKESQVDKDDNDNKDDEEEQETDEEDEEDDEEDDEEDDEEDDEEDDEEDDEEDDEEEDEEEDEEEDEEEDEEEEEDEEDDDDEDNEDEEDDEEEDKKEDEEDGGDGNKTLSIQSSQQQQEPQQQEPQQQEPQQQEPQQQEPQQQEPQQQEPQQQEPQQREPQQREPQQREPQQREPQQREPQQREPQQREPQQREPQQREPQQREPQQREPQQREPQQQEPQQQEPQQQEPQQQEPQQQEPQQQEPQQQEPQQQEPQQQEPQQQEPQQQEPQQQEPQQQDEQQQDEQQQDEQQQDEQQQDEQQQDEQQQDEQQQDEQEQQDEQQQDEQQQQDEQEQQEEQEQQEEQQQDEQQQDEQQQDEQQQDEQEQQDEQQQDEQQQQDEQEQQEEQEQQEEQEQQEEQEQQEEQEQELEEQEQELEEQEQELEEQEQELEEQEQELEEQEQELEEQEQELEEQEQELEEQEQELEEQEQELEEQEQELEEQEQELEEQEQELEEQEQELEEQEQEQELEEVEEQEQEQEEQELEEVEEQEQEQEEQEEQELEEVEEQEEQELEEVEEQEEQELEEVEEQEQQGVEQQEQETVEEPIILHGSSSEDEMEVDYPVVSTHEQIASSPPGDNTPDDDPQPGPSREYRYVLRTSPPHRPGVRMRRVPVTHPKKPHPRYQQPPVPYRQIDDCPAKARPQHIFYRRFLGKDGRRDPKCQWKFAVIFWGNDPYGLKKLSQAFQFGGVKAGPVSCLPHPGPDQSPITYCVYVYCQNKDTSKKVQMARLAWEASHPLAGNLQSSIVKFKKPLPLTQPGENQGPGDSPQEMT
Calb FLC: C. albicans growth inhibition with fluconazole, primary screen, CaCi-2 strain, Alamar Blue fluorescence; C. albicans CaCi-2 (fluconazole-resistant clinical isolate) + fluconazole, 48 h; growth inhibition, % (no concentration beside the values); 300,000 compounds, 0.57% hits; AID 1979, 2009;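 active means most replicates above 75%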;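 further: all wells also contain fluconazole at 8 µg/ml as a sub-toxic cotreatment; 0% = median of DMSO wells and 100% = median of geldanamycin control wells; wells of about 8 µL received 7.5 nL stock; the first replicate is given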
A1 inh: caspase 3/7 activation in MEF A1-2A-BIM cells, primary screen, A1 inhibitor project, cell-based, luminescence, HTS; Caspase-Glo 3/7 luminescence, 3 h; percent of clofoctol response, vehicle zero; caspase activation, % (test concentration not listed); AID 2462, 2010; 330,000 compounds, 0.066% hits;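 active means over half of replicate activation scores above 10%, or exactly half above 10 with the replicate mean above 10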;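 further: wells of about 30 µL received 50 nL stock; many hits fall short of the cut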
Beta2AR agonist: beta2AR agonists driving receptor internalization, primary screen, cell-based, FAP fluorogen, flow cytometry; Beta-2 adrenergic receptor (Homo sapiens), P07550; Am2.2-beta2AR cells; reference of the scale not given here; response, % (test concentration not listed); 340,000 compounds, 0.43% hits;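 active means response above a set limit, near 3 SD of response in nonfluorescent compounds, cut at about 42% in these data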;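 further: stock transfer was 100 nL into about 11 µL; a reference agonist was the positive control; negative values mostly stem from fluorescent compounds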
Beta apoptosis: inhibitors of cytokine-induced beta cell apoptosis, primary screen, luminescence | 300,000 compounds, 0.8% hits | AID 435005, 2010 | protection from apoptosis, % (test concentration not listed) | INS-1E cytokine-induced death, ATP luminescence, 48 h; percent of positive-control rescue, neutral wells zero;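 active means all replicates at 75% or more, or half of them and the mean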;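 further: 0% = cytokine-treated negative control wells and 100% = positive control rescue; higher means more ATP so stronger rescue from cytokine killing; wells of about 40 µL received 100 nL stock; the first replicate is given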
rRNA inh HTS OD600: second read-out of rRNA inh HTS, no call of its own (marks repeat the call); OD600 change, %; measured here: OD600 growth;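 optical density of the mix in the first replicate; 0 = DMSO median and -100 = no signal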
rRNA inh HTS RFP: second read-out of rRNA inh HTS, no call of its own (marks repeat the call); RFP signal change, %; measured here: RFP humanized mutant strains;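 first replicate; 0 = DMSO median and -100 = no signal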
Starred values were filed as active, the others as inactive; . = no result given. Only part of the results is shown; rates above refer to the full screens.

The line under a structure holds: T cruzi inh, ALR inh, rRNA inh HTS, rRNA inh HTS OD600, rRNA inh HTS RFP, LANA-H2B inh, Calb FLC, A1 inh, Beta2AR agonist, Beta apoptosis
- Cc1ccccc1-n1nc2c(c1NC(=O)C(C)C)CS(=O)(=O)C2
→ 1, -12, 16, 10, 0.9, -4.5, 1, -1.9, 3, -6
- CCN1CCN(c2ccc(S(=O)(=O)N3CCCCC3)cc2NC(=O)Cc2c(F)cccc2Cl)CC1
→ 51, -1, 5, 7, 7.4, -3.3, -8, -1.3, 18, -4
- COc1cc(NC2c3ccccc3C(=O)N2Cc2ccccc2)cc(OC)c1OC (stereo not drawn)
→ 5, 0, 0, 3, -3.7, 1.7, 4, 0.7, -6, 1
- O=C(CN(C(=O)CCC(=O)Nc1nccs1)c1ccc(F)cc1)NCC1CCCO1 (stereo not drawn)
→ 0, -12, ., ., ., -4.0, 0, -0.8, -4, -1
- O=C(Nc1cccc(S(=O)(=O)N2CCCC2)c1)c1ccc2ccccc2n1
→ 28, -21, 1, 14, 0.5, 3.2, -6, -0.1, 11, -3
- CC(C)N(c1ccccc1)c1ccc(NC(=S)NCCN(C)C)cc1
→ 31, 99*, -9, -6, 2.0, 0.1, -18, -0.1, 14, 4
- CCC1(c2ccccc2)NC(=O)N(CC(=O)N2CCc3ccccc32)C1=O (stereo not drawn)
→ ., ., ., ., ., -2.1, ., -0.4, 1, -4
- COCN(C#N)c1nc(OC)nc(OC)n1
→ -19, -8, 9, 7, -4.0, -4.4, -2, 0.2, -8, -2
- CCOc1ccc(NC(=O)CN2C(=O)NC(CCc3ccccc3)C2=O)cc1OCC (stereo not drawn)
→ ., -5, 3, 4, 4.6, 0.7, ., 0.9, -4, -2
- COc1cc(C(=O)NC(=S)Nc2nc(-c3ccc(F)cc3)cs2)cc(OC)c1OC
→ -3, -1, -8, -2, -2.3, -4.5, 5, 0.7, -1, 3
- CCOc1ccc(S(=O)(=O)N2CCC(c3ccccc3)CC2)cc1C(=O)O
→ 3, 4, -5, -12, -2.6, 1.8, 25, 0.6, 13, -2
- O=C(O)COc1ccccc1/C=N/Nc1ccc(S(=O)(=O)Nc2ccc(Cl)cc2)cc1[N+](=O)[O-]
→ -6, 5, -1, 1, -0.7, 0.0, 17, -0.1, -3, 3
- CC(C)Cn1c(=O)c2ccccc2n2c(SCC(=O)N3c4ccccc4CC3C)nnc12 (stereo not drawn)
→ 3, -1, ., ., ., -16, -1, 0.3, -8, 25
- S=C(NNC(=S)Nc1ccccc1)Nc1ccccc1
→ -12, 2, 3, 8, -0.5, 3.1, 11, -0.5, -7, -8
- O=C(c1ccc2c(c1)OCCO2)N1CCN(Cc2ccccc2)CC1
→ -9, -10, ., ., ., -3.8, -2, -0.8, -3, -4
- CC(Oc1ccc(Cl)cc1Cl)C(=O)NNC(=O)c1ccncc1 (stereo not drawn)
→ -3, 4, 5, 2, 2.0, 1.5, 10, 0.5, 1, 0
- COc1ccc(Nc2nnc(-c3ccc(C(N)=O)cc3)c3ccccc23)cc1
→ 9, ., -38*, -27*, -6.3*, 2.8, 29, -0.3, 5, 1
- COc1cc(C2C(C#N)=C(N)OC3=C2C(=O)CC(C)(C)C3)ccc1OCCN1CCOCC1 (stereo not drawn)
→ -17, 12, 10, 3, -0.2, -0.5, 9, -0.8, 2, -6
- COc1ccc(NC(=O)CN(C)C(=O)CCCNC(=O)c2ccc(Cl)cc2)cc1
→ 3, -3, -3, -3, -0.3, -0.8, 5, -0.1, -1, .
- COc1cc(C(=O)OCC(=O)N2CCOCC2)c([N+](=O)[O-])cc1OC
→ -6, -10, 11, 22, 0.7, 9.7, -18, 0.3, 5, -4
- CCN1C(=O)CC(N2CCN(c3ccc(Cl)cc3)CC2)C1=O (stereo not drawn)
→ 0, ., ., ., ., 1.3, 21, -0.3, -3, -4
- O=C(NCc1ccccc1)C1COc2ccccc2O1 (stereo not drawn)
→ 10, -15, ., ., ., 1.6, -4, -0.6, 2, -18
- O=C1CC(Sc2nnnn2-c2ccccc2)C(=O)N1c1cccc(Cl)c1 (stereo not drawn)
→ -7, 15, ., ., ., 6.7, -4, -0.9, 8, -13
- Cc1[nH]c2ccccc2c1/C=N/Nc1nncn1N
→ ., 72, -30*, -18*, -1.5*, 3.2, -15, -1.3, 2, -4
- CC(=O)N(C)c1ccc(NC(=S)Nc2ccccc2)cc1
→ -20, 2, ., ., ., -1.9, -1, 0.4, -15, -8
- COCCCN1CC(=O)N2C(c3ccc(OC)c(OC)c3)c3[nH]c4ccccc4c3C[C@H]2C1=O (stereo partly drawn)
→ 3, 35, 5, 8, -0.9, 1.2, 9, 1.4, 0, 8
- CN(C(=O)c1coc(=O)c2ccccc12)c1ccccc1Cl
→ -9, -1, -10, 4, 0.5, -136, 9, -0.1, -1, 4
- Cc1nc(NC(=S)NC(=O)c2ccco2)sc1C(=O)N(C)C
→ -4, 24, 7, 10, 3.0, 0.6, 2, -0.9, -4, -10
- Cc1csc2sc(-c3ccnc(SCC(=O)NCc4ccccc4)n3)c(C)c12
→ 2, ., 16, 2, 3.8, -2.0, -6, 0.6, 24, .
- COc1ccc(NC(=O)CSc2nc(N)c3cc4c(nc3n2)CCCC4)c(OC)c1
→ 0, 2, ., ., ., -6.4, 21, -0.1, -11, -7
- Cc1cc2c(cc1C)/C(=C\C(N)=O)NC(C)(C)C2
→ 11, 18, ., ., ., -2.2, 0, -0.5, 3, -10
- CCCCOc1ccc(N=Cc2cccs2)cc1
→ 28, ., 23, -3, -7.3, ., -3, -0.6, 2, -4
- COc1ccc2nc(Nc3nc(CSc4nnnn4-c4ccccc4)cc(=O)[nH]3)nc(C)c2c1
→ -1, -5, ., ., ., 0.2, -10, 0.0, -1, 3
- Cc1ccc(F)c(Oc2cc(NN3CCCCC3)c([N+](=O)[O-])cc2[N+](=O)[O-])c1
→ -4, 2, 8, 9, -7.3, 2.0, -2, -0.1, 4, 0
- CC(OC(=O)c1cc2sccc2n1C)C(=O)NCc1ccc(F)cc1 (stereo not drawn)
→ -11, ., ., ., ., -0.6, 0, -0.2, 2, .
- CCOCC(=O)Nc1nnc(Cc2ccc(OC)cc2)s1
→ -2, 2, ., ., ., -1.4, -2, 0.0, -4, -3
- O=C1CCCC2=C1C(c1ccsc1)CC(=O)N2c1ccccc1F (stereo not drawn)
→ 7, -12, -5, 6, 1.6, 2.9, -4, 0.2, 2, -1
- CC(C)(C)C1CCc2onc(C(=O)Nc3cnn(Cc4ccc(F)cc4)c3)c2C1 (stereo not drawn)
→ 26, -4, ., ., ., 2.2, 0, 0.2, -15, 5
- O=C(/C=C/c1ccc(-c2ccccc2[N+](=O)[O-])o1)c1ccc(F)cc1
→ -2, -18, ., ., ., 1.4, -1, 0.7, 2, 2
- CCCNS(=O)(=O)c1ccc(CCC(=O)N2CCN(c3ccc(OC)cc3)CC2)cc1
→ -2, 10, -1, -8, 3.0, 1.2, -1, 0.8, -1, 11
- CSC1=NCCCN1C(=O)c1c(-c2ccccc2Cl)noc1C
→ -8, 0, -4, 9, 0.9, 0.0, -4, 1.1, 9, 0
- CC(=O)Oc1ccc(C(=O)NCc2ccc3c(c2)OCO3)cc1
→ -11, -1, 10, 8, 4.4, -2.7, 18, -1.6, 8, -4
- CC(=O)Nc1ccc(NS(=O)(=O)c2cn(C)c(=O)n(C)c2=O)cc1
→ -8, 7, 3, 11, -0.3, 1.0, 3, -0.8, 19, -7
- CC(CC(=O)N1CCN(c2ccccc2)CC1)S(=O)(=O)c1ccc2c(c1)NC(=O)CS2 (stereo not drawn)
→ -9, -4, -5, -1, -1.0, -0.8, 7, 0.0, -2, 6
- COc1ccc(/C=C2\S/C(=N/S(=O)(=O)c3cccs3)NC2=O)cc1
→ -5, 97*, -36, -36, -12, 0.0, -1, -0.5, -5, 0
- O=C(Nc1ncnc2c1CCC2)C12CC3CC(CC(C3)C1)C2
→ -3, -2, -4, -3, 2.5, 0.9, 35, 1.2, -8, -5
- Cc1ccc(C2=N/C(=C\c3ccc(F)cc3)C(=O)N2)cc1
→ ., 3, 1, 5, 0.8, 3.5, ., 1.0, 1, 0
- COc1ccc(N2CC(NC(=O)NC(C)(C)C)CC2=O)cc1 (stereo not drawn)
→ -13, -23, 6, 3, -6.6, 3.8, -3, 0.2, 4, -5
- CN(C)/C(=N\S(=O)(=O)c1ccccc1)c1ccccc1
→ -14, ., 9, 7, -1.6, 6.0, -5, 1.4, -1, 2
- COc1ccc(CCNC(=O)CSc2ccc3nnc(CCNC(=O)c4ccc(C)cc4)n3n2)cc1OC
→ -2, ., 5, 9, 2.5, 1.7, 30, 0.8, -2, 3
- O=C1CCC(c2ccccc2)=NN1
→ -1, -9, 9, 8, -2.6, -1.3, -6, 1.5, -11, 5
- O=C1CCC(c2ccc(-n3ccnc3)cc2)=NN1
→ -1, 6, ., ., ., -4.2, ., 0.3, -6, 5
- CC(Cc1ccccc1)NC(=O)C1(c2ccccc2)CCOCC1 (stereo not drawn)
→ -15, 10, ., ., ., -3.0, 9, 1.1, -2, 1
- COc1cc(-c2nc(CN(C)C(C)c3ccncn3)c(C)o2)ccc1F (stereo not drawn)
→ -27, 3, 10, -1, 3.6, 5.7, -7, 0.2, 6, -1
- CC/C(=N\NC(C)=O)c1ccc(OC(F)F)cc1
→ 3, -3, ., ., ., -0.4, -1, 0.3, ., 3

Sorted by value in rRNA inh HTS OD600 (smallest number first): 3 from the list above
molecule	rRNA inh HTS OD600
COc1ccc(/C=C2\S/C(=N/S(=O)(=O)c3cccs3)NC2=O)cc1	-36
O=C(Nc1ncnc2c1CCC2)C12CC3CC(CC(C3)C1)C2	-3
CN(C)/C(=N\S(=O)(=O)c1ccccc1)c1ccccc1	7

Screening data: PubChem, several laboratories
